# Bioassay records: PubChem, ICCB-Longwood Screening Facility, Harvard Medical School
# KSHV LANA nucl: LANA-nucleosome interaction inhibition; hit rate 0.3% among 51,000; FITC-LANA1-23 / chicken nucleosome fluorescence polarization; stronger effect = lower value; z-score (concentration not given with the values);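 active = both repeat wells score below -2 in polarization z-score versus plate sample wells, excluding overly bright wells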;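 also: 100 nL library stock added to about 30 µL; numbers are from one replicate; some results filed as inactive read as strong as hits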
#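 Assay system: purified chicken nucleosomes with FITC-labelled LANA N-terminal peptide (1-23) / Probe or stimulus: 50 nM FITC-LANA1-23 probe / Compound dosing: pin-transferred compound, 100 nL / Times: compound with peptide–nucleosome mix 10–45 min at room temperature / Technique: fluorescence polarization, 480 nm excitation, 535 nm parallel and perpendicular emission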
# Ab BasE inh: BasE siderophore biosynthesis inhibition; purified BasE, fluorescence polarization binding displacement; inhibition, % (concentration not given with the values); hit rate 0.1% among 84,000;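 active = both replicates above 25% with normal brightness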;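 also: 0% = negative plate control signal and 100% = positive plate control signal; stock transfer was 100 nL into about 30 µL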
# Starred values were filed as active, the others as inactive; nt = no result given; & = joins results of further samples. An excerpt, so the mix of outcomes need not match the whole.
SMILES,KSHV LANA nucl,Ab BasE inh
O=c1[nH]c2ccccc2nc1NCc1ccccc1,-0.14,0.5
Cc1ccccc1Nc1nc(N)nc(Cn2ccsc2=N)n1,nt,-0.7
CCOC(=O)c1sc(=Nc2ccccc2)n(-c2ccccc2)c1C,-1.2,0.5
COc1ccccc1NC(=O)/N=C1\NC(=O)C(C(C)C)O1 (stereo unspecified),nt,1.2
Cc1cc(-c2onc(C)c2C(N)=S)no1,0.51,0.7
N#Cc1cc(C#N)c(SCC(=O)NCCN2C(=O)CSC2=O)nc1N,nt,-1.0
Cc1ccc(S(=O)(=O)/N=C/c2ccccc2O)cc1,0.92,2.8
O=C(/C=C/c1ccccc1)/C=C/c1ccco1,0.11,nt
O=C(O)C1C2C=CC(C2)C1C(=O)N1CCN(C2CCCCC2)CC1 (stereo unspecified),-1.4,3.4
CC1CCCN(Cc2nc3c(c(=O)n(C)c(=O)n3C)n2CC(N)=O)C1 (stereo unspecified),-1.2,0.3
O=C(Cc1ccccc1)N/N=C/c1cccs1,0.78,-2.1
O=C(NC(=O)N1CCCCC1)c1ccccc1,1.8,-3.0
CN1CCN(c2ccccc2NC(=O)c2cccs2)CC1,-0.18,-0.1
Cc1cc(C(=O)CSc2nnc(-c3cccc(F)c3)n2N)c(C)n1CC1CCCO1 (stereo unspecified),nt,0.9
O=C(CCCn1c(=O)oc2ccccc21)Oc1ccc(-c2nnco2)cc1,nt,-2.6
O=S(=O)(Nc1ccc(Cl)c(C(F)(F)F)c1)c1ccc(S(=O)(=O)N2CCOCC2)cc1,nt,0.5
CC(Sc1nnnn1C1CC1)C(=O)NC(c1ccccc1)c1ccccc1 (stereo unspecified),nt,2.0
O=C(CN1CCCN(S(=O)(=O)c2ccc(Br)s2)CC1)Nc1ccc(Cl)cc1,0.043,1.7
Cc1nc2sccn2c(=O)c1CCN1CCC(=C(c2ccc(F)cc2)c2ccc(F)cc2)CC1,0.034,nt
Cc1ccc2nc(COC(=O)c3c(-c4ccccc4)noc3C)cc(=O)n2c1,nt,-1.8
CC1Sc2ccc(C(=O)NCCc3ccccn3)cc2NC1=O (stereo unspecified),nt,-1.5
Cc1occc1-c1nnc(SC2CCCCN(C(=O)c3ccc(F)cc3)C2=O)n1C (stereo unspecified),nt,1.5
O=C(/C=C(\O)c1ccc(Cl)cc1)C(F)(F)F,0.026,3.4
CC1=NN(c2ccc(Br)cc2)C(=O)/C1=C/c1ccc(-c2ccc3c(c2)C(=O)NC3=O)o1,nt,0.6
Cc1cc2c(cc(C(=O)N3CCC(C(=O)N4CCCC4)CC3)n2Cc2c(F)cccc2Cl)o1,-0.017,-1.7
CCN(CC)c1ccc(C(=O)N/N=C2\CC3CC=CC23)cc1 (stereo unspecified),nt,-2.2
Cc1ccc(OCCn2cnc3ccccc3c2=O)cc1,nt,-0.4
Cc1cc(C)n(CCCNC(=O)CSc2ccc(S(=O)(=O)N(C)C3CCCCC3)cn2)n1,nt,-0.5
NCC(O)C(O)C(O)c1cnn(-c2ccccc2)n1 (stereo unspecified),nt,0.7
CCCn1nnnc1NC(=O)c1cccnc1Cl,nt,2.5
Cc1nnc(NC(=O)c2ccccc2SCC(=O)NC2CCCCCCC2)o1,nt,-0.2
COc1ccc(Cl)cc1S(=O)(=O)NC1CCCC1,-1.6,-1.8
Cc1ccc(NC(=S)NC2CC2)c(C)c1,-0.31,-2.0
Cc1cc2c3c([nH]c2cc1S(=O)(=O)NCc1ccco1)CCCC3=O,-0.29,-4.2
C=CCNC(=O)CSc1ccc(C)cc1,-0.16,-0.7
O=c1c2c3c(sc2nc2n1CCC2)CCC3,-0.14,-3.7
O=C(c1ccccc1)N1CCN(C(=O)c2ccc(OCC3CCCO3)cc2)CC1 (stereo unspecified),nt,0.8
CCc1nc2ccc(C(=O)NCCN3CCN(c4cccc(Cl)c4)CC3)cc2nc1CC,-1.1,0.3
O=C(O)C(C(=O)O)C1c2ccccc2Oc2ccccc21,0.014,-1.7
CCCn1c(N)c(C(=O)CSc2nc3ccccc3s2)c(=O)[nH]c1=O,nt,2.3
Cc1ccc(NC(=O)COC(=O)c2ccccc2)cc1F,nt,-0.9
CCCn1c(N)c(C(=O)CSc2nc3ccccc3n2CCC#N)c(=O)n(C)c1=O,nt,-2.5
N/C(CCCN1CCCCC1)=N\O,nt,2.1
Cc1ccc(CNC(=O)Cn2ncc3c(=O)oc4ccc(C)cc4c32)cc1,-0.022,15
O=C(C1CCCN1S(=O)(=O)c1ccc(Cl)cc1)N1N=C2/C(=C/c3cccs3)CCCC2C1c1cccs1 (stereo unspecified),nt,3.4
CCN1C(=O)C2C3C=CC(C3=C3C4CC5CC(C4)CC3C5)C2C1=O (stereo unspecified),0.35,1.9
COc1ccc2c(=O)c(-c3ccccc3C)c(C(F)(F)F)oc2c1,nt,1.4
O=C(O)C1CCCCN1S(=O)(=O)c1ccccc1Cl (stereo unspecified),nt,2.4
CC1=C(C(=O)c2ccccc2)C(c2ccc(N3CCOCC3)cc2)NC(=O)N1 (stereo unspecified),nt,-3.1
COc1ccc(/C=N/OCC(=O)Nc2ccccc2OC)cc1,nt,-1.7

# Next results follow:
SMILES,KSHV LANA nucl,Ab BasE inh
COc1ccc(C)cc1NC(=O)COCc1cc(-c2ccc3c(c2)OCO3)on1,1.8,-1.4
O=C(CN1CCOCC1)NCC1COc2ccccc2O1 (stereo unspecified),-0.25,-0.9
Cc1ccc2nsnc2c1S(=O)(=O)NC12CC3CC(CC(C3)C1)C2,-0.17,-0.4
CC1=C(C#N)C(=O)N(CCc2ccccc2)C(=O)/C1=C\c1ccc(-c2cccc(Cl)c2)o1,0.5,12
O=C(CCc1n[nH]c(=O)[nH]c1=O)N/N=C/c1ccccc1,2.3,-0.9
COc1ccc2c(=O)c(NC(=O)NCCCN3CCCC3=O)c[nH]c2c1,0.04,2.3
CCOC(=O)C1=C(CSc2nnc3ccccn23)NC(=O)NC1c1cccs1 (stereo unspecified),nt,1.1
CCOC(=O)c1cc2occc2n1CC(=O)N1CCCCC1,-0.28,1.1
C=CC(N)CCC(=O)O (stereo unspecified),0.079&-0.38,0.7
O=C(O)CC1(CC(=O)Nc2cc3ccccc3cn2)CCCCC1,nt,0.5

# An excerpt of these results, field by field:
CCOC(=O)c1cc2occc2n1CC(=O)N1CCCCC1
  KSHV LANA nucl = -0.28
  Ab BasE inh = 1.1

C=CC(N)CCC(=O)O (stereo unspecified)
  KSHV LANA nucl = 0.079&-0.38
  Ab BasE inh = 0.7

O=C(O)CC1(CC(=O)Nc2cc3ccccc3cn2)CCCCC1
  KSHV LANA nucl = nt
  Ab BasE inh = 0.5

# Continued.
SMILES,KSHV LANA nucl,Ab BasE inh
CCn1c(=O)c(C(=O)CN2CCc3ccccc32)c(N)n(Cc2ccccc2)c1=O,nt,0.0
COC(=O)C1Sc2[nH]c(=O)sc2C(c2ccc(OC)cc2)C1C(=O)OC (stereo unspecified),nt,1.9
CN(C)c1cccc(N(C)C)c1CNC(=O)c1ccccc1F,nt,1.9
CCn1c(COc2ccc(C)cc2)nnc1SCC(=O)N1CCCc2ccccc21,0.88,-3.7
O=C(c1ccc(Nc2nc3ccccc3n3nnnc23)cc1)N1CCOCC1,0.35,-2.3
CCOC(=O)[C@@H]1Nc2c(ccc(C(=O)O)c2C)[C@@H]2C=CC[C@H]12,0.071,-0.1
S=C(c1cccc(OCc2ccccc2)c1)N1CCCCC1,nt,2.2
CCCCn1nc(C(=O)NC2CCCCCC2)c2ccccc2c1=O,nt,-3.5
CC1(C)C2CC=C(/C=C(\C#N)c3nc4ccccc4[nH]3)C1C2 (stereo unspecified),nt,-3.0
Cc1ccc(N2C(=O)CC(SCC(=O)Nc3ccccc3)C2=O)cc1 (stereo unspecified),0.36,-2.0

# Profiles as entered above:
# Profile of `CCn1c(COc2ccc(C)cc2)nnc1SCC(=O)N1CCCc2ccccc21` : KSHV LANA nucl = 0.88; Ab BasE inh = -3.7
# Profile of `CCCCn1nc(C(=O)NC2CCCCCC2)c2ccccc2c1=O` : KSHV LANA nucl = nt; Ab BasE inh = -3.5

# Next entries
SMILES,KSHV LANA nucl,Ab BasE inh
CNC(=O)CCCc1nnc2n(CCC(C)C)c(=O)c3sccc3n12,0.84,2.5
CN(C)S(=O)(=O)c1ccc(SCC(=O)N(CC2CCCO2)C2CCS(=O)(=O)C2)nc1 (stereo unspecified),nt,1.7
O=S(=O)(NCC(c1ccccc1)N1CCOCC1)c1ccccc1 (stereo unspecified),-0.42,-0.1
COc1ccccc1-c1nnc(C2CCN(S(=O)(=O)c3ccc(C)cc3)CC2)o1,-0.23,-5.2
CCn1c(SCCOc2ccccc2)nc2ccccc21,-1,0.7
Cc1ccc(NS(=O)(=O)c2ccc3oc(=O)c4ncn(C)c4c3c2)cc1,0.93,0.3
COc1ccc(/C=N/NC(=O)c2c(-c3ccccc3)noc2C)c(O)c1,0.25,1.2
O=C(c1csc(-c2ccccc2)n1)N1CC=C(c2ccccc2)CC1,-0.68,nt
CCOc1ccc(CN2C(=O)C(NC(C)=O)c3ccccc32)cc1 (stereo unspecified),-0.45,-1.4
CC1CCN(S(=O)(=O)c2cn(C)c(=O)n(C)c2=O)CC1,0.76,-0.5
C=CCN1C(=O)NC(C)(C)C1=O,nt,1.4
O=C1CC(c2cccc(Br)c2)Nc2ccc3ccccc3c21 (stereo unspecified),nt,1.4
CCOC(=O)N1CCC2(CC1)OC(=O)C(C)=C2C(=O)N1CCCC1,-1.1,1.1
Cc1cc2nc(CSc3ccccc3)cc(=O)n2o1,-0.46,-2.2
COc1ccccc1OCC(=O)Nc1ccccc1C(=O)NCc1cccnc1,0.54,-0.7
O=C(O)CCCCCN1CCN(c2ccccc2)CC1,-0.11,2.7
O=C(NCc1ccccc1)NC1CCS(=O)(=O)C1 (stereo unspecified),nt,-4.0
COc1cc([C@@H]2c3cc4c(cc3[C@@H](O[C@@H]3O[C@@H]5CO[C@@H](C)O[C@H]5[C@H](O)[C@H]3O)C3COC(=O)[C@@H]32)OCO4)cc(OC)c1O (stereo partly specified),-0.14,-0.9
CCNC(=S)N/N=C/c1ccccc1OC(C)C,nt,1.7
O=S(=O)(NCc1cccnc1)c1ccc2[nH]c3c(c2c1)CCCC3,-1.3,2.1
CC(C)NC(=O)c1cc(-c2ccco2)nn1-c1ccc(Cl)cc1,nt,0.4
CC(Nc1ccc(Cl)cc1)C(=O)N/N=C/c1ccc2c(c1)OCO2 (stereo unspecified),-0.18,1.3
COCc1nn2cc(-c3ccc(C)cc3C)nc2s1,0.51,-1.4
Cc1ccc(OCC(=O)N(c2ccccn2)C2CCCCC2)c(C)c1,nt,-0.5
SCc1nc2c3ccccc3ncn2n1,nt,0.8
O=C(CCc1nc(-c2ccccc2F)no1)NCCN1CCOCC1,-0.037,1.7
COc1cccc(C2CC(c3cccs3)=NN2C(=O)CN2CCOCC2)c1OC (stereo unspecified),-0.53,-1.6
C=CCc1c(C)nc(SC(C)C)[nH]c1=O,1.5,-6.1
COc1ccccc1C(=O)Nc1ccccc1N1CCN(C)CC1,-1.2,-0.2
COc1ccc(C)cc1NC(=O)CSc1nnc(Cn2nnc3ccccc32)n1C,-0.47,-0.4
O=C(O)c1nn(Cc2ccccc2)c(=O)c2ccccc12,nt,-0.2
COc1ccc(N=c2oc3c(C)ncc(CO)c3cc2C(=O)Nc2ccc3c(c2)OCO3)cc1,-0.76,2.4
CC(C)(C)OC(=O)Cn1nc(C(=O)O)c2ccccc2c1=O,nt,1.4
NC(=O)CSc1nc2ccccc2c(=O)n1Cc1ccc(Cl)cc1,nt,1.3
C/C(=C\c1ccccc1)CN1CCC(C(N)=O)CC1,1.7,-1.8
O=C(CCNS(=O)(=O)c1ccccc1)NC12CC3CC(CC(C3)C1)C2,nt,3.9
CCCn1c(N)c(C(=O)CN2CCCCC2)c(=O)[nH]c1=O,nt,0.2
O=C(CN1CCN(Cc2ccccc2)CC1)NC(=O)NCc1ccco1,nt,-4.9
Cc1oc(-c2cc(Cl)ccc2Cl)cc1C(=O)NC(C)C,0.39,1.0
CC(C)(C)NC(=O)C[n+]1cccc(/C=N/O)c1,nt,1.6
Nc1nc(-c2ccccc2)c(CC(=O)O)s1,-0.92,-1.0
COc1ccc(OCc2nc3ccccc3n2C(C)C)cc1,0.48,-3.0
COc1ccccc1CC(=O)N1CCCC1,-0.11,1.4
Cc1ccc(C(=O)CSc2nnc(CSc3nc(C)cc(C)n3)n2C)cc1,0.19,-1.7
COc1ccc(CCNC(=O)CSc2nc(C)cc(C)n2)cc1OC,nt,1.5
S=C(NNc1nc(N2CCCCC2)nc(N2CCCCC2)n1)NC1CCCCC1,-0.24,1.3
CC(/C=C/c1ccc2c(c1)OCO2)=N\NC(=O)c1ccccn1,-0.39,0.9
O=S(=O)(Nc1ccccc1N1CCOCC1)c1ccc(Cl)s1,nt,0.3

# Already shown: 7 of the compounds above.
SMILES,KSHV LANA nucl,Ab BasE inh
Nc1nc(-c2ccccc2)c(CC(=O)O)s1,-0.92,-1.0
COc1ccc(OCc2nc3ccccc3n2C(C)C)cc1,0.48,-3.0
COc1ccccc1CC(=O)N1CCCC1,-0.11,1.4
Cc1ccc(C(=O)CSc2nnc(CSc3nc(C)cc(C)n3)n2C)cc1,0.19,-1.7
COc1ccc(CCNC(=O)CSc2nc(C)cc(C)n2)cc1OC,nt,1.5
S=C(NNc1nc(N2CCCCC2)nc(N2CCCCC2)n1)NC1CCCCC1,-0.24,1.3
CC(/C=C/c1ccc2c(c1)OCO2)=N\NC(=O)c1ccccn1,-0.39,0.9
